# High-throughput results from PubChem BioAssay.
# Autofluor counter = counter-screen for toxin protease inhibitors: compound fluorescence; compound autofluorescence counterscreen, microsphere flow cytometry; stronger effect = higher value; fluorescence intensity (concentration not given with the values); 3.1% of 360,000 active; AID 624483;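 active means at least 3 SD above the mean of all compounds, about 16000 in these data; inconclusive means too few beads counted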;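 further: 100 nL of 1 mM stock went into each well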
# RN4220 kill = kills Staphylococcus aureus RN4220; S. aureus RN4220 growth, OD600, 16 h; inhibition, % (test concentration not listed); 0.33% of 330,000 active;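 active means z-score of -3 or lower and OD600 up to 0.18 on both plates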;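 further: plate controls were untreated cells for no effect and reference antibiotic for full effect; stock transfer was 100 nL into about 80 µL; one replicate is shown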
# Mtb hypoxia inh = reduces hypoxia-regulated biosensor signal in M. tuberculosis. 0.1% of 300,000 active. AID 1159583. M. tuberculosis hypoxia-regulated fluorescent reporter, fluorescence. fluorescence inhibition, % (concentration not given with the values);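 active means 35 to 45% if threefold the growth effect, above 45% if 1.5-fold the growth effect; inactive means the rest, general growth blockers included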;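 further: wells of about 50 µL received 100 nL stock; 0% = vehicle wells and 100% = reference inhibitor wells; whole bacteria with a GFP reporter of the hypoxia response; strong numbers were not always called active; many hits fall short of the cut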
# PrP 5UTR inh = suppresses PrP 5' UTR mRNA reporter expression | cell-based PrP 5' UTR mRNA reporter, plate reader | inhibition, % (test concentration not listed) | 0.35% of 340,000 active;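 active means every replicate at 50% or more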;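 further: 0 = median of the neutral control wells; tested in H4 reporter cells; numbers are from one replicate; inactives centre near -14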
# BJeLR lethal = kills HRASV12-expressing BJeLR cells; BJeLR (HRASV12) viability, CellTiter-Glo ATP luminescence, 48 h; reference of the scale not given here; inhibition, % (test concentration not listed); 0.17% of 300,000 active;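 active means replicate mean above 50%; inconclusive means above 50% but judged a plate artefact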;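 further: 50 nL library stock added to about 25 µL; numbers are from one replicate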
# ugtP null kill = growth inhibition of S. aureus ugtP deletion strain. S. aureus RN4220 ugtP deletion, OD600 growth, 16 h; some inactives read as strong as hits. growth inhibition, % (concentration not given with the values). 0.54% of 330,000 active. AID 1259309;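 active means z-score under -3 and OD600 up to 0.15 on both plates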;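 further: plate controls were untreated wells for no effect and antibiotic for full effect; wells of about 80 µL received 100 nL stock; the first replicate is given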
# Mtb hypoxia inh growth = second read-out of Mtb hypoxia inh, no call of its own (marks repeat the call); growth inhibition, %; measured here: M. tuberculosis growth (absorbance);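 0% = vehicle and 100% = reference antibiotic; read after six days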
# Numbers without * were called inactive; ? = inconclusive; · = no result given.
canonical_smiles	BJeLR lethal	Autofluor counter	Mtb hypoxia inh growth	ugtP null kill	RN4220 kill	PrP 5UTR inh	Mtb hypoxia inh
C(=N\Nc1nc(Nc2ccccc2)nc(Nc2ccccc2)n1)/c1cccnc1	-1	2045	·	·	·	7	·
CC(NCc1cccs1)C(=O)NC1CCCCC1 (configuration not stated)	-3	3271	17	2	2.9	-18	19
CCOc1ccc2nc(N=Cc3nc(-c4ccc(Br)cc4)oc3O)sc2c1	·	·	6	-19	1.0	·	-5
O=C(CCc1nnc2ccc(N3CCC4(CC3)OCCO4)nn12)N1CCCCC1	-5	5017	9	6	1.8	-14	5
CC(C)(C)c1ccc(/C=C/C(=O)NCCCN2CCOCC2)cc1	2	3964	1	4	0.1	-20	8
O=C(COC(=O)c1cccc(S(=O)(=O)N2CCCC2)c1)Nc1ccccc1Cl	·	·	12	5	3.7	-7	6
COc1cccc(N(C(=O)c2nc3nccc(C)n3n2)c2nc3ccccc3s2)c1	2	2344	-14	-24	-12	-96	-10
CCCCn1c(=O)c(Cc2ccccc2)c(O)c2ccccc21	-4	2813	·	-18	-7.2	-9	·
Cn1ncc([N+](=O)[O-])c1C(=O)NCc1ccccc1	-1	6183	-3	-2	-3.6	-27	-5
O=C1NC(=O)C(CSc2ccccc2)(c2ccccc2)N1 (configuration not stated)	·	4047	15	0	3.7	-23	15
O=C(COc1ccc(Cl)cc1)NNC(=S)NCc1ccccc1	-8	3779	11	-17	3.7	-2	-4
CCN(CC)CCCNC(=O)c1cc(Nc2ccc(OC)cc2)nc2ccccc12	-12	3687	1	12	-3.8	2	3
CCN(C(=O)Cn1c(=O)oc2cc(S(=O)(=O)N3CCCC3)ccc21)c1ccc(OC)cc1	6	5966	7	10	-0.3	-34	9
CCOc1ccc(OCC)c(NC(=O)Nc2ccc3c(c2)N(C)C(=O)CS3)c1	1	5470	·	7	-7.6	6	·
CC(=O)Nc1ccc(NC(=O)c2ccc([N+](=O)[O-])cc2Cl)cc1	-3	2100	6	-1	2.8	-8	10
CCn1c(SCC(=O)c2cc(OC)ccc2OC)nnc1C(C)C	-1	4326	5	0	1.4	-5	-4

# Six compounds picked at random from the list so far, as already listed:
canonical_smiles	BJeLR lethal	Autofluor counter	Mtb hypoxia inh growth	ugtP null kill	RN4220 kill	PrP 5UTR inh	Mtb hypoxia inh
CCN(CC)CCCNC(=O)c1cc(Nc2ccc(OC)cc2)nc2ccccc12	-12	3687	1	12	-3.8	2	3
O=C(COc1ccc(Cl)cc1)NNC(=S)NCc1ccccc1	-8	3779	11	-17	3.7	-2	-4
Cn1ncc([N+](=O)[O-])c1C(=O)NCc1ccccc1	-1	6183	-3	-2	-3.6	-27	-5
CC(=O)Nc1ccc(NC(=O)c2ccc([N+](=O)[O-])cc2Cl)cc1	-3	2100	6	-1	2.8	-8	10
CCN(C(=O)Cn1c(=O)oc2cc(S(=O)(=O)N3CCCC3)ccc21)c1ccc(OC)cc1	6	5966	7	10	-0.3	-34	9
O=C1NC(=O)C(CSc2ccccc2)(c2ccccc2)N1 (configuration not stated)	·	4047	15	0	3.7	-23	15

# The list goes on.
canonical_smiles	BJeLR lethal	Autofluor counter	Mtb hypoxia inh growth	ugtP null kill	RN4220 kill	PrP 5UTR inh	Mtb hypoxia inh
CN(C)C(=O)C1CC1C(NC(=O)OCc1ccccc1)c1ccccc1 (configuration not stated)	·	·	11	-3	1.4	·	8
CC(=O)NC(O)C(=O)c1ccco1 (configuration not stated)	2	6815	4	13	4.6	-29	6
Cc1ccc(-c2c(C)n([O-])c3c([n+]2=O)CCC3)cc1	8	2278	11	4	1.9	0	2
O=C(N/N=C/c1c[nH]c2ccccc12)c1ccc(O)c(O)c1	-3	2980	·	·	·	-7	·
O=C(CS(=O)(=O)c1ccc(F)cc1)NCc1ccccc1	2	6401	-5	0	0.5	-26	8
Cc1nn2c(NCCCn3ccnc3)cc(C(C)C)nc2c1-c1ccccc1	-14	6163	3	1	-7.2	-7	11
COc1ccc(C2=[N+](C)CCn3cccc32)c(OC)c1	5	7638	5	2	7.6	-27	4
COc1ccc2c(c1)C(c1cccs1)=NNC(c1ccncc1)=N2	2	4054	9	12	4.3	-15	8
c1cc2c(cc1C1CCCCC1)c1c3n2CCCNC3CCC1 (configuration not stated)	8	3236	·	87*	89*	3	·
CCCCn1c(N)c(N(CCOC)C(=O)COC(=O)c2cc(CCC)c(C)s2)c(=O)[nH]c1=O	-6	6385	-6	13	-2.9	-14	3
C=CCNC(=O)CSc1ccc(Cl)cc1	3	2915	·	-3	-0.9	-21	·
Cc1cc(C(=O)NN=Cc2ccc(N3CCOCC3)cc2)c(C)o1	·	·	1	14	4.8	·	3
CN(C1CCCC1)C1CCN(C(=O)CNC(=O)/C=C/c2cccc(C(F)(F)F)c2)CC1	1	1986	6	3	3.1	-10	6
Cc1ccccc1C1=NC(C(F)(F)F)(C(F)(F)F)c2c(n(-c3ccc(F)cc3)c(=O)[nH]c2=O)N1	3	10496	0	-3	5.9	-10	9
COc1ccc(C(=O)COC(=O)C(CC(C)C)N2C(=O)c3ccccc3C2=O)cc1 (configuration not stated)	3	?	6	7	7.5	-24	6
COc1ccc(NS(=O)(=O)c2cccc(C(=O)NCCCN3CCCC3=O)c2)cc1	-8	?	5	1	-3.2	-14	-8
COc1ccc(OC)c(S(=O)(=O)Nc2ccccc2C(F)(F)F)c1	-10	5014	10	0	13	-24	7
COC(=O)c1ccccc1S(=O)(=O)N1CCC(C(=O)OCC(=O)NC2CCCCC2C)CC1 (configuration not stated)	·	3331	3	0	0.4	-1	-4
CCN1CCCC1CNC(=O)c1cc2c(=O)n(C)c3ccccc3c2n1C (configuration not stated)	-2	6212	·	11	2.4	-15	·
CN(CC1COc2ccccc2O1)c1nc(-c2cccnc2)nc2ccccc12 (configuration not stated)	-3	3716	24	-21	12	0	0
COc1ccccc1N1CN(Cc2ccccc2)CNC1=S	4	5767	-1	13	2.4	-13	22
CCN(CC(=O)Nc1ccccc1C(F)(F)F)CC(=O)NC1CC1	·	4189	6	3	1.2	-11	3
COc1ccc(NC(=O)c2ccc(=O)[nH]c2)cc1S(=O)(=O)N1CCOCC1	·	6229	0	2	1.0	8	3
C/C(CC(=O)Nc1cccc(C(F)(F)F)c1)=N\NC(=O)C1CCCCC1	4	2300	·	·	·	-10	·
O=C(NCC1COc2ccccc2O1)c1cc2ccccc2o1 (configuration not stated)	1	3399	-2	-4	-1.0	5	-5
O=C(Nc1cccnc1Cl)c1cccc(S(=O)(=O)N2CCOCC2)c1	-2	4783	2	5	-1.5	0	10
Cc1ccc(C(C)C)c(OCCN(C)C)c1	2	3713	2	0	0.9	-7	11
COc1ccc(/C=C/C(=O)C2(O)CCCCC2)cc1OC	0	4284	9	8	14	-18	23
COc1ccc(C2c3cc(OC)c(OC)cc3CCN2C(=O)c2ccccc2)cc1OC (configuration not stated)	-18	3992	-2	-8	-0.9	-10	-12
Cc1ccc(C)c(OCC(=O)O/N=C(\N)c2cccnc2)c1	-7	4766	4	-3	5.1	-32	19
CCOC(=O)C1CCN(C(=O)CN(c2cc(OC)ccc2OC)S(=O)(=O)c2ccccc2)CC1	-2	3308	8	-4	3.7	-23	6
CCOC(=O)c1nnc(-c2ccc(C)cc2)nc1Sc1ccccc1Cl	-1	2221	·	11	4.2	-2	·
CN1CCN(CCCNC(=O)Cn2ncc3c4ccccc4n(C)c3c2=O)CC1	0	6099	4	7	1.9	-63	7
CCC(=O)N(C)CCc1cc2c(c(OC)c1/C=N/NC(=O)c1ccccc1O)OCO2	1	2082	·	·	·	-15	·
O=C(NCCN1CCN(Cc2ccccc2)CC1)c1cc2c(=O)[nH]c3ccccc3c2s1	-6	5259	12	-4	1.7	-31	6
CN(C)/C=C/C(=O)c1cnc(-c2ccccc2)s1	-10	4059	6	0	5.5	-20	3
Cc1ccc(N2C(=O)C(Cl)=C(N3CCCCCC3)C2=O)c(C)c1	12	3125	4	9	0.2	-5	14
CC(NC(=O)c1ccccc1F)c1nnc(SCC(=O)Nc2nnc(C3CC3)s2)n1C (configuration not stated)	-7	·	12	-1	0.6	-11	-7
O=C(COC(=O)C1=COCCO1)Nc1ncc(Cl)cc1Cl	1	5002	10	-4	2.4	-14	6
CC(C)Oc1cc(NC(=O)CSCC(=O)Nc2cccc(C(F)(F)F)c2)c(Cl)cc1Cl	14	8186	9	-16	-17	-35	2
CCOC(=O)C1=C(COC(=O)c2ccc(OC(C)C)cc2)NC(=O)NC1C (configuration not stated)	2	?	6	3	2.5	2	4
O=C(Nc1ccc(N2CCOCC2)cc1)c1cccc(-n2cnnc2)c1	-8	4977	5	4	3.5	-11	3
CCCC(=O)Nc1cc(C(=O)N2CCC3(CC2)OCCO3)ccc1S(=O)(=O)c1ccc(C)cc1	·	8109	3	6	3.1	-8	1
O=c1cc(Cl)[nH]c(=O)n1Cc1ccccc1	-9	4028	-2	4	-0.6	-12	6
CC1CC(C)(C)NC(=S)N1CCC(=O)N1CCN(Cc2ccccc2)CC1 (configuration not stated)	·	4565	-1	1	2.5	-12	4
CN(C)c1ccc(NC(=S)N(CCc2ccccc2)C2CC(=O)N(c3c(Cl)cccc3Cl)C2=O)cc1 (configuration not stated)	11	4882	·	1	0.5	-11	·
CSCCC(NC(=O)OC(C)(C)C)C(=O)Oc1ccc2c(=O)c(-c3ccc4c(c3)OCCO4)coc2c1 (configuration not stated)	·	10349	5	4	2.7	-30	4
O=C(Nc1cccc(NC(=O)c2nccc3ccccc23)c1)c1ccco1	·	9701	4	-20	0.6	-11	9
O=C(COc1ccccc1F)Nc1cc(S(=O)(=O)N2CCOCC2)ccc1N1CCOCC1	-7	3985	7	4	7.0	-2	4
COc1cc(C(=O)NN=Cc2ccc(OC)c(CN3CCN(c4ccc(F)cc4)CC3)c2)ccc1O	·	·	6	0	9.5	·	0
COc1cccc(C(=O)NC2CCCc3c2cnn3-c2ccc(C)c(C)c2)c1OC (configuration not stated)	-1	5804	8	4	2.2	-36	7
COc1ccc(NC(=O)N2CCC(c3ccccc3)C2)c(OC)c1 (configuration not stated)	0	5278	3	8	5.1	-23	2
COc1ccc(C2Oc3ccccc3N2C(C)=O)cc1 (configuration not stated)	-1	6237	11	6	3.5	-9	12
O=C(CNS(=O)(=O)c1ccc2ccccc2c1)Nc1ccc(F)c(F)c1F	·	·	3	1	4.1	-13	3
COc1cccc(CC(=O)N2CCC(n3nccc3NC(=O)C3CC3)CC2)c1	0	4943	6	9	5.1	-16	8
N=c1c(S(=O)(=O)c2ccc(Br)cc2)cc2c(=O)n3ccccc3nc2n1Cc1ccco1	-10	5301	-11	0	1.9	-18	10

# (list continues)
canonical_smiles	BJeLR lethal	Autofluor counter	Mtb hypoxia inh growth	ugtP null kill	RN4220 kill	PrP 5UTR inh	Mtb hypoxia inh
Cn1cc(CN2CCC(C(O)c3cccs3)CC2)c(-c2cccc(Cl)c2)n1 (configuration not stated)	1	4677	5	12	7.2	-5	8
CCc1ccc(OC(=O)Cc2ccc(OC)c(S(=O)(=O)N3CCOCC3)c2)cc1	·	3970	-1	5	1.8	-12	2
COc1ccccc1-n1c(N)c(C(N)=O)sc1=S	1	3658	-2	0	-1.2	18	1
Cc1nn(-c2ccccc2)c2sc(C(=O)NNC(=O)COc3ccccc3)cc12	6	22047*	-6	-15	-1.7	-7	-9
Cc1c(C)c(C)c(S(=O)(=O)NCCc2ccncc2)c(C)c1C	-8	3991	11	3	4.4	-12	16
Nc1ncnc2c1ncn2[C@@H]1O[C@H](CNC(=O)[C@@H](N)COCc2ccccc2)[C@@H](O)[C@H]1O	·	3652	0	4	2.6	3	-10
COc1ccc(/C=C(\NC(=O)c2ccc([N+](=O)[O-])cc2)C(=O)NCCCn2ccnc2)cc1	4	5464	6	3	3.3	-25	1
COc1ccc(OC)c(NC(=O)CC(NCCC2=CCCCC2)C(=O)O)c1 (configuration not stated)	14	·	-2	10	1.9	·	3
CCn1c(COc2ccc(C)cc2)nnc1SCC(=O)NCc1ccco1	-8	4516	12	5	1.9	-2	-5
CCn1c(SCC(=O)NCC(=O)Nc2ccc(F)cc2)nnc1-c1ccncc1	-3	4632	·	3	0.5	-13	·
